Assay outcomes from PubChem BioAssay.
StopGo FLuc: Primary qHTS Assay for Foot and Mouth Disease Virus Antivirals against NCGC Sytravon and CBC Compound Libraries: Firefly Luciferase Signal | HEK cells with a luciferase reporter of 2A StopGo recoding | Potency, µM (series often up to 57.5 µM), inactives show at the top dose signal change, negative = less light | 120,000 compounds, 0.23% hits | AID 1745856, 2022; active = well fitted falling curve with a large enough effect; inconclusive = small, poorly fitted or top-dose-only effect; inactive = no such curve, though single readings can be large or run the other way; further: nearly all actives have a fitted effect of over 60% in size; overnight with compound
StopGo RLuc: Primary qHTS Assay for Foot and Mouth Disease Virus Antivirals against NCGC Sytravon and CBC Compound Libraries: Renilla Luciferase Signal; 120,000 compounds, 0.32% hits; AID 1745857, 2022; Potency, µM (titrated, usually from 57.5 µM), for the others: top-dose signal change, negative = less light; HEK cells with a luciferase reporter of 2A StopGo recoding; active means well fitted falling curve with a large enough effect; inconclusive means small, poorly fitted or top-dose-only effect; inactive means no such curve, though single readings can be large or run the other way; further: nearly all actives have a fitted effect of over 55% in size; overnight with compound
Starred values were filed as active, the others as inactive; ? = inconclusive; [ ] = another dose, or the depositor's remark. On the % scale 0 is the no-effect control and ±100 the full control effect; potency means the concentration at half of the fitted maximal effect.

SMILES | StopGo FLuc | StopGo RLuc
Cn1c(=O)c2c(-c3ccccc3Br)n(CCc3ccccc3)cc2n(C)c1=O | 51%[activator] | -19%
COc1ccc(NC(=O)C(C)C)cc1Cl | 13% | 5%
Cn1c(=O)c2sccc2n2c(CCC(=O)NCc3ccccc3Cl)nnc12 | 9% | -4%
COc1cccc2cc(C(=O)N(C)CCOc3cccc(Cl)c3)c(=O)oc12 | 130%[activator] | 45%[activator]
COC(=O)c1ccccc1NC(=O)Cn1c(=O)cc(-c2ccccc2)c2c(C)nn(C)c21 | -16% | -17%
CCOc1ccc(NC(=O)CC2C(=O)N(c3ccccc3)C(=O)N2C2CCCCC2)cc1 (stereo unspecified) | -24% | 20%
Cc1cc(NC(=O)CSc2nc3c([nH]c4ccccc43)c(=O)n2-c2ccc(Cl)cc2)no1 | 9% | -2%
Cc1ccc(-c2csc(=Nc3ccccc3)n2Cc2ccc3c(c2)OCO3)cc1C | 177%[activator] | 7%
CCCc1cc(=O)oc2cc(OCc3nn[nH]n3)ccc12 | -2% | -15%
CC(C)Nc1ncnc(N)c1[N+](=O)[O-] | -2% | -8%
O=C(COC(=O)c1ccccc1I)c1ccc([N+](=O)[O-])cc1 | 0% | 19%
Cc1ccc(NC(=O)C(Nc2ccc3oc(C)nc3c2)c2ccccc2)cc1 (stereo unspecified) | 74%[activator] | 103%[activator]
COc1ccc(-c2nc3cc(NC(=O)c4cccc([N+](=O)[O-])c4)ccc3o2)cc1 | 8% | -10%
CSc1nc(C(C)C)nc(C)c1C(=O)Nc1ccc(Cl)cc1 | -1% | -3%
CSc1ncc2c(n1)-c1ccccc1N(Cc1ccc(F)cc1)S2(=O)=O | ? | ?
CCOc1cccc2cc(S(=O)(=O)N3CCCCCC3)c(=O)oc12 | -6% | -4%
Cc1nc2cc(NC(=O)COc3ccc(Br)cc3F)ccc2o1 | 0% | -4%
O=C1CCCC2=C1C(c1ccc(Cl)cc1)CC(=O)N2c1ccc(F)cc1 (stereo unspecified) | -13% | -4%
Cc1nn(C)c2c1c(C(F)(F)F)cc(=O)n2CC(=O)N1CCC(C)CC1 | -21% | -17%
Cc1ccc(N(CC(=O)NCc2ccncc2)S(=O)(=O)c2ccc(Cl)cc2)cc1C | -19% | 85%[activator]
CCOCCn1c(=O)c2c(nc(-n3nc(CC)cc3CC)n2CC)n(C)c1=O | 6% | 5%
CCN(CC)CCNC(=O)c1cc(-c2ccco2)nc2ccccc12 | -10% | -10%
O=C(Nc1ccc(Br)cc1F)Nc1c(N2CCCC2)c2ccccc2oc1=O | -1% | 60%[activator]
C=CCn1c(SCC(N)=O)nc2c1c(=O)[nH]c(=O)n2C | -4% | -10%
Cc1ccc(Cn2c(C(=O)O)c(CNC3CCCCCC3)c3ccc(C)cc32)cc1 | 12% | 7%
COc1ccc(CSc2nc3ccncc3n2Cc2ccc(OC)cc2)cc1 | -12% | ?
CNC(=O)c1ccc(NC(=O)CSCc2csc(-c3ccccc3)n2)cc1 | 0% | 8%
CCCNC(=O)COc1ccc2c(=O)c(-c3ccc(OC)c(OC)c3)c(C)oc2c1 | -12% | -17%
N#Cc1ccccc1OCc1ccccc1 | 211%[activator] | 16%
CCN(CC)CCNC(=O)c1ccc(NC(=O)Cc2cccc(C(F)(F)F)c2)cc1 | 4% | 12%[1.06 µM]
CCOC(=O)CNS(=O)(=O)c1cc(-c2n[nH]c(=O)c3ccccc23)ccc1C | 4% | 50%[activator]
CCONC(=O)c1ccc(OCC(C)C)cc1 | 84%[activator] | 5%
O=C(NCc1ccc(Cl)cc1)c1cnc2sc(N3CCOCC3)nn2c1=O | 0% | -6%
CC(C)Cn1nc(C(=O)NCc2ccc(F)cc2)c2ccccc2c1=O | -24% | -1%
Cc1cc(C)cc(NS(=O)(=O)c2ccc(NS(=O)(=O)c3ccccc3[N+](=O)[O-])cc2)c1 | 2% | 201%[activator]
C=CCn1c(NCCCOC)nc2c1c(=O)[nH]c(=O)n2C | -3% | 5%

Reprinted from the part before: three compounds; new compounds follow.
SMILES | StopGo FLuc | StopGo RLuc
CC(C)Cn1nc(C(=O)NCc2ccc(F)cc2)c2ccccc2c1=O | -24% | -1%
Cc1cc(C)cc(NS(=O)(=O)c2ccc(NS(=O)(=O)c3ccccc3[N+](=O)[O-])cc2)c1 | 2% | 201%[activator]
C=CCn1c(NCCCOC)nc2c1c(=O)[nH]c(=O)n2C | -3% | 5%
COc1ccccc1-c1cc(C(F)(F)F)nc(S(=O)(=O)CCCC(=O)Nc2cc(C)ccc2O)n1 | -9% | 9%
CS(=O)(=O)c1ccc(C(=O)CSc2ccc(F)cc2)cc1 | 14% | 4%
CCOC(=O)Nc1ccc(OC)cc1 | 50%[activator] | 7%
CN(CC(=O)NC(N)=O)Cc1ccsc1 | 0% | 26%
CC(C)OC(=O)CSc1nc2c(c(=O)[nH]c(=O)n2C)n1C | 89%[activator] | 46%[activator]
CCCCn1c(CN2CCN(C)CC2)nc2c1c(=O)n(C)c(=O)n2C | -3% | -1%
O=C(c1ccccc1)N1CCCCC1CCN1CCCCC1 (stereo unspecified) | -13% | -5%
Cc1ccc(NC(=O)c2ccc(Oc3nccnc3N3CCCCC3)cc2)cc1C | 90%[activator] | -12%
CC(C)CN(C(=O)Cn1nc(-c2ccc(Cl)cc2)ccc1=O)C1CCS(=O)(=O)C1 (stereo unspecified) | 6% | -13%
Cc1ccc(C)c(OCC(O)Cn2nc(C)c3ccccc3c2=O)c1 (stereo unspecified) | 0% | 9%
Cc1ccc2oc(C(=O)N(C)CC(=O)Nc3ccccc3Br)cc(=O)c2c1 | 17% | 13%
O=C(OCCOc1ccc(Br)cc1)c1ccccc1C(=O)c1ccc(Cl)cc1 | 10% | 5%

A second format for some results above.
Value order: StopGo FLuc, StopGo RLuc
- CCOC(=O)Nc1ccc(OC)cc1
 : 50%[activator], 7%
- CN(CC(=O)NC(N)=O)Cc1ccsc1
 : 0%, 26%
- CC(C)OC(=O)CSc1nc2c(c(=O)[nH]c(=O)n2C)n1C
 : 89%[activator], 46%[activator]
- CCCCn1c(CN2CCN(C)CC2)nc2c1c(=O)n(C)c(=O)n2C
 : -3%, -1%

More results.
SMILES | StopGo FLuc | StopGo RLuc
Cc1ccc(C)c(NC(=O)Cn2c(=O)n(-c3ccc(CC(=O)NCC4CCCO4)cc3)c(=O)c3ccccc32)c1 (stereo unspecified) | -19% | -13%
CC(=O)NC(NC(C)=O)C(Cl)Cl | 0% | 28%
c1ccc(SCc2nc(-c3ccc(C4CCCCC4)cc3)cs2)cc1 | 194%[activator] | 14%
CS(=O)(=O)N1CCCc2cc(C(=O)c3cc4cc(Cl)ccc4o3)ccc21 | ? | ?
O=C(COC(=O)CC12CC3CC(CC(Br)(C3)C1)C2)Nc1ccccc1[N+](=O)[O-] | 0% | 2%
Cc1ccc(NC(=O)Nc2ccc3snnc3c2)cc1C | 42%[activator] | 1%
Cc1cccc(-c2noc(CSc3nc(-c4ccc(F)cc4)cc(=O)[nH]3)n2)c1 | -22% | -13%
CC(C)(C)N1CC(C(=O)Nc2ccc3c(c2)CCC3)CC1=O (stereo unspecified) | 16% | -5%
CC(OC(=O)c1cc(=O)[nH]c2ccccc12)C(=O)NCCc1ccccc1 (stereo unspecified) | 5% | 4%
COc1ccc(NC(=O)Cn2c(=O)n(Cc3ccco3)c(=O)c3oc4ccccc4c32)cc1Cl | -14% | -1%
COc1cccc(C(=O)CS(=O)(=O)c2ccc(C)cc2)c1 | -7% | 64%[activator]
COc1ccc(CNC(=O)Cc2c(C)c3cc4c(C)coc4cc3oc2=O)cc1 | -13% | -8%
O=C(CCc1ncc(-c2ccc(Cl)cc2)o1)N1CCC(C(=O)N2CCCC2)CC1 | 28% | -13%
C#CCOc1c(I)cc(/C=C2/NC(=O)NC2=O)cc1OCC | 25% | 33%[activator]
COc1ccccc1N1CCN(c2ncnc3c2nc2n3CCCC2)CC1 | 0% | -29%
CCC(=O)NCC(c1cccs1)N(C)C (stereo unspecified) | 37%[activator] | -2%
COc1ccc2oc(-c3cccc(NC(=O)c4ccc(C#N)cc4F)c3)nc2c1 | 9% | -7%
Cc1ccc(NC(=O)CN2C(=O)COc3ccc(S(=O)(=O)N4CCCCC4)cc32)cc1Cl | -11% | 41%[activator]
O=C(CSC1=NC2(CCCCC2)Nc2ccccc21)Nc1ccc2c(c1)OCO2 | -4% | ?
C#CC(C)(CC)NC(=O)/C=C/c1cc(OC)c(OC)c(OC)c1 (stereo unspecified) | 16% | 30%
CCn1c(=O)cc(SCC(=O)Nc2cc(Cl)ccc2OC)c2ccccc21 | -25% | 41%[activator]
O=C(Nc1ccc(F)cc1F)c1ccc(-n2cnnc2)cc1 | -6% | -4%
Cc1ccc(C)c(CN2C(=O)c3ccccc3S(=O)c3ccc(C(=O)NCCC4=CCCCC4)cc32)c1 (stereo unspecified) | -11% | -10%
CN1CCc2c(sc3c2C(=O)NC(c2ccc(C(C)(C)C)cc2)N3)C1 (stereo unspecified) | 10% | -5%
Cc1ccc2nc(-c3ccc(Cl)c(NC(=O)COc4ccc(C(C)C)cc4)c3)oc2c1 | 89%[activator] | 4%
COc1ccccc1NC(=O)Cn1c(=O)n(-c2ccc(C)cc2)c(=O)c2ccc(C(=O)NCc3ccco3)cc21 | -14% | -4%
COc1ccc(N2CCN(S(=O)(=O)c3ccc(-c4coc(C)n4)cc3)CC2)cc1 | 22% | 16%
O=C(Nc1cccnc1)c1ccc(CSc2ccc(Cl)cc2)cc1 | -26% | ?
CC1(C)CC(=O)C2=C(C1)OC(N)=C(C#N)C2c1ccc(C2C(C#N)=C(N)OC3=C2C(=O)CC(C)(C)C3)cc1 (stereo unspecified) | 19% | 9%
CONC(=O)c1ccccc1C(=O)c1ccccc1 | 41%[activator] | 28%
COc1ccc(C(=O)C(C)Cl)c(OC)c1 (stereo unspecified) | 31%[activator] | 19%
COc1ccc([C@@H]2CC(=O)C3=C(C2)Nc2[nH][nH]c(=O)c2[C@H]3c2cccc(Br)c2)cc1OC | 42%[activator] | 21%
Cc1cccc(Cn2cccc(C(=O)Nc3nc4ccccc4s3)c2=O)c1 | 127%[activator] | -4%
CCc1nn(CCCC(=O)N2CCN(c3cc(Cl)ccc3C)CC2)c(=O)c2cc3occc3n12 | 6% | -12%
Cc1cccc(C(c2sc3nc(-c4ccco4)nn3c2O)N2CCN(Cc3ccccc3)CC2)c1 (stereo unspecified) | 0% | 2%
Cc1cnc(NC(=O)c2csc(NCCC(C)C)n2)s1 | 171%[activator] | -5%

Three structures out of the list, arranged by molar mass, descending:
SMILES | StopGo FLuc | StopGo RLuc
COc1ccc([C@@H]2CC(=O)C3=C(C2)Nc2[nH][nH]c(=O)c2[C@H]3c2cccc(Br)c2)cc1OC | 42%[activator] | 21%
Cc1cccc(C(c2sc3nc(-c4ccco4)nn3c2O)N2CCN(Cc3ccccc3)CC2)c1 (stereo unspecified) | 0% | 2%
COc1ccc(N2CCN(S(=O)(=O)c3ccc(-c4coc(C)n4)cc3)CC2)cc1 | 22% | 16%

Additional records follow:
SMILES | StopGo FLuc | StopGo RLuc
Cc1ccc(S(=O)(=O)N(C)Cc2cc3ccccc3[nH]c2=O)cc1 | -2% | 15%
CN(C)c1ccc(CNC(=O)Cn2c(=O)oc3cc(S(=O)(=O)N4CCCCCC4)ccc32)cc1 | ? | 20µM*
COCC(C)NC(=O)Cc1nc(-c2ccccc2)oc1C (stereo unspecified) | 7% | -1%
Cc1cccc(-c2noc(CNC(=O)c3ccco3)n2)c1 | 8% | -10%
Cc1ccc(C)c(NC(=O)CSc2ncc3c(n2)-c2ccccc2N(Cc2ccccc2C)S3(=O)=O)c1 | -15% | -16%
O=[N+]([O-])c1cc(C(F)(F)F)ccc1NC1C2CC3CC(C2)CC1C3 (stereo unspecified) | 21% | 18%
O=C(Nc1nnc(C2CC(=O)N(c3ccc(Cl)cc3)C2)s1)c1ccco1 (stereo unspecified) | -6% | -8%
O=C(CN(Cc1cccs1)CC1CCCO1)Nc1cccc(F)c1 (stereo unspecified) | 12% | 85%[activator]
COc1cc(OC)c(OC)cc1/C=C1\N=C(SC)SC1=O | -8% | -1%
Cc1ccc(S(=O)(=O)c2cnc(SCC(=O)Nc3ccc4c(c3)OCCO4)[nH]c2=O)cc1Cl | 2% | -9%
Cc1cc(C)c2c(=O)cc(C(=O)Nc3ccc(S(=O)(=O)Nc4nccc(C)n4)cc3)oc2c1 | 9% | 5%
Cc1cccc(Nc2nnc(-n3nc(C)cc3C)c3ccccc23)c1 | 0% | 15%
Clc1cccc(N/N=C(/c2ccccc2)c2ccncc2)c1 | -14% | -11%
Cc1cc(=O)oc2cc(OCC(=O)N(c3ccccc3)C(C)C)ccc12 | 2% | 7%
CCOC(=O)C1=C(C)NC(=O)NC1c1cn(-c2ccccc2)nc1-c1ccc(OC(C)C)c(C)c1 (stereo unspecified) | 83%[activator] | -19%
OC(c1cn2cc(-c3ccc(F)cc3)nc2s1)(C(F)(F)F)C(F)(F)F | ? | 22%
COc1ccccc1CNC(=O)c1ccc(Nc2nc3ccccc3n3nnnc23)cc1 | 16% | 0%
COc1cc(NC(=O)c2sc(-c3c(F)cccc3OC)nc2C)cc(OC)c1OC | 62%[activator] | 48%[activator]
CCN1CCC(N(Cc2ccc3c(c2)OCO3)C(=O)Nc2ccc(C)c(C)c2)CC1 | 25% | -8%
COc1ccc(-c2onc(C)c2C)cc1S(=O)(=O)NCc1ccco1 | 27% | 185%[activator]
CCOc1ccc(CNC(=O)c2ncoc2-c2cccs2)cc1OC | 15% | 11%

Some of the compounds tested; count on the stated rates, not on these rows.
